# Screening data from PubChem BioAssay.
# Lassa entry inh = qHTS for Inhibitors of binding or entry into cells for Lassa Virus; 1.2% of 300,000 active; Potency, µM (titrated, usually from 37.9 µM), inactives show at the top dose activity change, negative = inhibition, actives largely listed as inhibitors; Lassa virus pseudotype entry inhibition, cell reporter; control for the full effect not named in the record; active means well fitted inhibition curve with a large enough effect; inconclusive means small, poorly fitted or top-dose-only effect, or effect the other way; inactive means flat fitted curve, though single readings scatter; tested in HEK293 cells; also: % is scaled to controls: 0 for no effect and ±100 for the full control effect; nearly all actives have a fitted effect of over 50% in size; luciferase read-out
# NS1 inh = qHTS Assay for Inhibitors of Influenza NS1 Protein Function | S. cerevisiae slowed by influenza A NS1, growth recovery by OD600 | Potency, µM (titrated, usually from 46.1 µM), for the others: at the top dose activity, positive = more growth | 0.4% of 270,000 active | AID 2326, 2010; active means well fitted rising curve with a large enough effect; inconclusive means small, poorly fitted or top-dose-only effect; inactive means no such curve, though single readings can be large or run the other way; also: nearly all actives have a fitted effect of over 50% in size
#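 Recovery from NS1-induced slow growth read by OD600 in budding yeast switched to galactose assay medium (pH 6.0, -URA) at 1:100 dilution. Compound 23 nl per well; the matching strain lacking NS1 serves as control.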
# RE007 growth inh = qHTS Assay for Inhibitors of the HIV-1 protein Vpr; S. pombe RE007 Vpr strain, BacTiter-Glo ATP luminescence, 24 h; control for the full effect not named in the record; Potency, µM (top dose mostly 92.2 µM), without a hit: top-dose activity change, negative = less growth; 0.21% of 360,000 active; AID 651644, 2012; active = well fitted falling curve with a large enough effect; inconclusive = small, poorly fitted or top-dose-only effect; inactive = no such curve, though single readings can be large or run the other way;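 also: % is scaled to controls: 0 for no effect and ±100 for the full control effect; nearly all actives have a fitted effect of over 50% in size; the assay follows cell death caused by Vpr and the record does not say whether a fall means rescue or toxicity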
#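 Fission yeast strain RE007, carrying one chromosomally integrated HIV-1 vpr copy, was seeded at OD 0.01 in PMG+AL medium with 23 nL pinned compound. After 24 h at 30 °C and 99% humidity, viability was read by BacTiter-Glo luminescence.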
# StopGo reporter = High Throughput Screening for Foot and Mouth Disease Virus Antivirals; human cells with a luciferase reporter of 2A StopGo recoding; control for the full effect not named in the record; Potency, µM (top dose mostly 57.9 µM), for inactives: at the highest dose signal change, negative = less light; 1.2% of 410,000 active; active = well fitted falling curve with a large enough effect; inconclusive = small, poorly fitted or top-dose-only effect; inactive = no such curve, though single readings can be large or run the other way; tested in HEK293T cells; also: % is scaled to controls: 0 for no effect and ±100 for the full control effect; nearly all actives have a fitted effect of over 45% in size; luciferase light after 4 h
# Cruzain inh Det = qHTS Assay for Promiscuous and Specific Inhibitors of Cruzain (with detergent); purified cruzain, Z-FR-AMC fluorescence, 0.01% Triton; Potency, µM, without a hit: max response, negative = inhibition, actives largely listed as inhibitors; 0.43% of 200,000 active; AID 1478, 2009;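 also: plate controls were neutral wells for no effect and buffer without enzyme for full effect; nearly all actives have a fitted effect of over 40% in size; top concentration of the series not given in the record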
# Target sequence (P25779 123-467 limits assumed): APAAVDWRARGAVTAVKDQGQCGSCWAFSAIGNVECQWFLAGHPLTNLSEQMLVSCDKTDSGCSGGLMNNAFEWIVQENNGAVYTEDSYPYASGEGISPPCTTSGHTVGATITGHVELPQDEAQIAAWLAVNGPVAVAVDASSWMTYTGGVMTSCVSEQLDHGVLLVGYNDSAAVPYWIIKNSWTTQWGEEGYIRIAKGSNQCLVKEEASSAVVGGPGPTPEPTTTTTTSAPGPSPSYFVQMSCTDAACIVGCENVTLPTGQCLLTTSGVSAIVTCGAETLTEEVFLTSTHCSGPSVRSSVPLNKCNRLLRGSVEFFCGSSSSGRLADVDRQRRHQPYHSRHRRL
#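 Compounds were screened in titration against cruzain (1.5 nM) with 0.01% Triton X-100 to counter colloidal aggregation. Activity was the AMC fluorescence increase over 60 s after adding 2 uM Z-FR-AMC at pH 5.5.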
# Cruzain noTriton = qHTS Assay for Promiscuous and Specific Inhibitors of Cruzain (without detergent) | Cruzipain (Trypanosoma cruzi), P25779 | purified cruzain, Z-FR-AMC fluorescence, no detergent | Potency, µM, inactives show max response, negative = inhibition, most hits filed as inhibitors | 2.3% of 200,000 active | AID 1476, 2009;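 also: plate controls were enzyme without inhibitor for no effect and buffer without enzyme for full effect; nearly all actives have a fitted effect of over 40% in size; top concentration of the series not given in the record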
#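 Purified cruzain at 1.5 nM, pre-incubated 15 min with compound at room temperature in 100 mM sodium acetate pH 5.5, 5 mM DTT, 0.00005% Triton X-100. Reaction started with 2 uM Z-FR-AMC; AMC fluorescence increase over 60 s gives rate.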
# SARS PLP yeast = qHTS of Yeast-based Assay for SARS-CoV PLP; S. cerevisiae expressing SARS-CoV PLpro, growth rescue; control for the full effect not named in the record; 0.19% of 330,000 active; Potency, µM (titrated, usually from 32.9 µM), for inactives: top-dose activity, positive = growth rescue; active means well fitted rising curve with a large enough effect; inconclusive means small, poorly fitted or top-dose-only effect; inactive means no such curve, though single readings can be large or run the other way; also: 0% is about no effect; nearly all actives have a fitted effect of over 55% in size; growth read by luminescence after 48 h
# MARV entry inh = qHTS for inhibitors of binding or entry into cells for Marburg Virus. Marburg virus pseudotyped entry inhibition, cell reporter; control for the full effect not named in the record; about a third of the inactives were read at about 46 µM. Potency, µM (top dose mostly 37.8 µM), for the others: at the top dose activity change, negative = inhibition, hits mostly inhibitors. 1.8% of 300,000 active. AID 540276, 2011; active = well fitted inhibition curve with a large enough effect; inconclusive = small, poorly fitted or top-dose-only effect, or effect the other way; inactive = flat fitted curve, though single readings scatter; tested in HEK293 cells; about a fifth of its hits are not listed in these tables; also: % is scaled to controls: 0 for no effect and ±100 for the full control effect; luciferase read-out
# Active calls of the source: *; u = inconclusive; x = not tested or not shown; & = joins results of further samples; [ ] = dose if it differs, or a comment. Unless noted, calls follow the shape of the dose curve; as a rule, active = well fitted curve in the direction sought with a large enough effect; inconclusive = small, poorly fitted or top-dose-only effect, or another doubt; inactive = no such curve, though single readings can be large; an effect the other way counts as inactive or inconclusive. Potency is read from the fitted curve at half-maximal effect.
no.	molecule	Lassa entry inh	NS1 inh	RE007 growth inh	StopGo reporter	Cruzain inh Det	Cruzain noTriton	SARS PLP yeast	MARV entry inh
1	O=C(CC(Nc1ccc(F)cc1)C(=O)OCC(=O)c1cccs1)c1ccccc1 (stereo not given)	22%	-28%	u	59%[activator]	-4.3%	0%	-20%	u
2	COc1cc(/C=C/C(=O)OCC(=O)NCC2CCCO2)ccc1OCC#N (stereo not given)	-4%	12%	2%	-11%	-7.0%	-13%	3%	6%
3	COCCn1c(C(=O)N(C)C)cc2c1C[C@H]1CN(C(=O)c3ccccc3)[C@@](Cc3ccc(F)cc3)(C(=O)OC)[C@@H]21	x	x	-5%	-25%	-2.6%	u	x	x
4	COc1ccccc1CNC(=O)CN1C(=O)CCn2nc(-c3ccccc3)cc21	17%[46.1 µM]	x	x	-4%	-1.1%	3%	x	x
5	Clc1ccc(NNc2ccnc3cc(Cl)ccc23)cc1	-3%	-12%	5%	9%	-6.3%	4%	-2%	u
6	C#CCN(CC=C)C(=O)CCc1nnc(COc2ccccc2)o1	x	3%	-1%	39%[activator]	x	x	0%	x
7	OCCN1CCN(c2ncnc3ccc(Br)cc23)CC1	x	11%	0%	-24%	-3.6%	-10%	2%	x
8	CC1(C)Cc2ccccc2C(C(=O)c2ccccc2)=N1	x	8%	-14%	-7%	x	x	-2%	x
9	Cc1ccc(Cl)cc1N1CCN(S(=O)(=O)c2ccc3c(c2)NC(=O)C(C)C(=O)N3)CC1 (stereo not given)	x	15%	2%	u	x	x	0%	x
10	CCCc1nnc(NC(=O)CCC(=O)N2CCN(S(=O)(=O)c3ccc(OC)cc3)CC2)s1	24%[46.1 µM]	2%	1%	-9%	x	x	-8%	1%[46.1 µM]
11	CCc1nn(CC(=O)N2CCCCCC2)c(=O)c2cc3ccccc3n12	x	-2%	1%	-9%	x	x	2%	x
12	CCn1c(COc2ccccc2C)nnc1SCC(=O)CC(=O)Nc1ccccc1	-9%	u	-6%	-15%	-5.7%	15%	2%	-19%
13	Cc1csc2c(N3CCN(C(=O)Nc4ccc(OC(F)(F)F)cc4)CC3)ncnc12	-18%	-6%	48%	u	x	x	-3%	u
14	FC(F)(F)c1cccc(Nc2nc(N3CCOCC3)nc(N3CCOCC3)n2)c1	x	20%	7%	-27%	x	x	-6%	x
15	CCc1ccc(NC(=O)c2ccc(F)c(S(=O)(=O)N3CCC4(CC3)OCCO4)c2)cc1	u	x	x	-26%	-2.9%	27%	x	x
16	COc1ccc(/C=C/C(=O)Nc2ccc(Cl)c(Cl)c2)cc1OC	-16%[46.1 µM]	x	x	u	-13%	27%	x	x
17	O=C(c1cc2c(F)cccc2s1)N1CCCC1	16%	-5%	-21%	45%[activator]	x	x	-1%	u
18	O=C(Cc1cccs1)NCc1cccs1	12%	3%	-2%	4%	1.0%	4%	5%	17%
19	Cc1cnn(-c2ccc3nnc(-c4ccc(Cl)cc4)n3n2)c1	-2%	8%	2%	-11%	-9.6%	-3%	3%	2%
20	COCCNC(=O)CN1C(=O)COc2ccc(Cl)cc21	15%	u	4%	-18%	1.1%	-8%	12%	u
21	CCCCc1cc(=O)oc2cc(OCC(=O)N[C@@H](Cc3ccccc3)C(=O)O)ccc12	x	u	3%	-7%	x	x	8%	x
22	O=C(CSc1nnc(-c2ccncc2)n1-c1ccc(F)cc1)NNC(=O)c1cccc(O)c1	8%	5%	23%	-8%	-1.0%	12%	3%	24%
23	Cc1ccnc(NC(=O)CSc2ccccn2)c1	x	-1%	-17%	61%[activator]	x	x	1%	-5%
24	CCOC(=O)c1c(C)[nH]c(C)c1S(=O)(=O)NCC(=O)Nc1cc(C)ccc1OC	-16%[46.1 µM]	x	x	-17%	1.9%	-4%	x	x
25	COc1ccc(C2CC(O)(C(C)(C)O)NO2)cc1 (stereo not given)	0%	-11%	8%	x	0.6%	6%	1%	u
26	COc1ccc(NC(=O)CSCC(=O)OCc2cccc(OC)c2OC)cc1	0%[46.1 µM]	x	9%	-17%	x	x	2%	u
27	O=C(NCCCN1CCOCC1)c1ccc(NS(=O)(=O)c2ccccc2)cc1	41%	9%	0%	-15%	x	x	u	4%
28	COc1ccc(C2(O)CCN(CCCCOc3ccccc3)CC2)cc1	0%	1%	6%	0%	0.6%	2%	-10%	u
29	COc1cccc(F)c1C(=O)NC(=O)Nc1ccc2nc(C)oc2c1	-8%[46.1 µM]	-2%	0%	34%[activator]	x	x	0%	8%[46.1 µM]
30	O=C1CCCN1c1cccc(Br)c1	-6%	5%	-10%	20%	1.3%	-8%	-3%	-13%

# More structures:
no.	molecule	Lassa entry inh	NS1 inh	RE007 growth inh	StopGo reporter	Cruzain inh Det	Cruzain noTriton	SARS PLP yeast	MARV entry inh
31	O=C(NCCc1ccccc1)C(=Cc1ccc(C(=O)O)cc1)C(=O)NCCc1ccccc1	5%	17%	20%	-25%	x	x	-1%	u
32	O=C1CC(C2CCCO2)C(=O)N1c1ccccc1 (stereo not given)	24%	2%	1%	-20%	2.6%	2%	-9%	6%
33	O=c1cc2c(=O)oc3cc(O)c(O)oc3c2c(O)c1O	u	6%	-3%	-11%	x	x	1%	u
34	Cc1c(C(=O)Nc2ccccn2)sc2nc3n(c(=O)c12)CCC3	x	-5%	3%	14%	x	x	-3%	x
35	COc1ccc(CNC(=O)C2CCN(c3nc(-c4ccccc4)nc4c3CCC4)CC2)cc1	u	2%	-2%	-8%	x	x	1%	u
36	COC(=O)c1ccccc1NC(=O)N1CCN(C/C=C/c2ccccc2)CC1	6%	-31%	-3%	18%	2.2%	-1%	3%	0%
37	CCOC(=O)CS(=O)(=O)CC(=O)Nc1ccc([N+](=O)[O-])cc1OC	u	x	-10%	19%	x	x	-1%	7%[46.1 µM]
38	CCCCCOC(=O)C1=C(C)NC(=O)NC1c1ccccc1 (stereo not given)	x	25%	7%	-24%	x	x	2%	x
39	CCc1ccc(Sc2cc(C(=O)NC(C)CC)c3ccccc3n2)cc1 (stereo not given)	u	x	x	-7%	1.2%	10%	x	x
40	CCOC(=O)/C=C1\SCC(=O)N1CC(=O)NC(C)C	26%	-5%	3%	-11%	4.7%	-6%	4%	u
41	COCC(C)NC(=O)CSc1nc(-c2ccccc2)c(-c2ccccc2)o1 (stereo not given)	u	-1%	-8%	x	-4.3%	u	5%	u
42	CCCCC(CC)CNC(=O)CCCCn1c(=O)[nH]c2ccsc2c1=O (stereo not given)	u	x	2%	-16%&-4%	-2.7%	27%	1%	u
43	FC(F)(F)c1cnc(-c2cnc(-c3ccncc3)nc2)c(Cl)c1	-1%	x	3%	14%	x	x	-2%	u
44	Cc1ccc(NC(=O)CNc2ccc(N3CCOCC3)cc2)cc1S(=O)(=O)N(C)C	0%	x	4%	9%	x	x	-2%	u
45	Cc1cccc(NC(=S)N2CCN(Cc3ccccc3)CC2)c1C	7%	-4%	8%	-17%	-0.7%	4%	-15%	20%
46	COc1ccc(/C=N/NC(=O)c2cc3c(ccc4ccccc43)o2)c(OC)c1	x	-32%	12%	-28%	x	x	-5%	x
47	CCCn1cc(S(=O)(=O)c2ccc(CC)cc2)c(=O)c2ccccc21	-5%[46.1 µM]	x	x	23%	-2.4%	9%	x	-7%[46.1 µM]
48	Nc1nncn1C(=O)CCCOc1ccccc1	4%	7%	4%	3%	4.2%	0%	-5%	22%
49	COC(=O)/C(=C/c1ccco1)NC(=O)c1ccc(Br)o1	24%[46.1 µM]	x	-23%	28%	x	x	0%	u
50	NC(=O)Cc1ccc(C(=O)c2ccccc2F)s1	2%[46.1 µM]	x	-6%	1%	x	x	0%	1%[46.1 µM]
51	O=C(COc1ccccc1[N+](=O)[O-])NC1CC1	14%	-3%	5%	14%	x	x	2%	7%[46.1 µM]
52	Cc1ccc(CNC(=O)/C=C/c2ccccc2Cl)cc1	-1%	-6%	-2%	32%[activator]	0.4%	-2%	u	19%
53	Cc1occc1-c1nnc(SCCNCCO)o1	4%	x	14%	9%	x	x	5%	0%[46.1 µM]
54	Cc1nn(Cc2ccccc2)c(C)c1CNC(=O)CN=C1NS(=O)(=O)c2ccccc21	8%	x	u	41%[activator]	x	x	1%	-1%
55	O=C(COC(=O)CC1CCCC1)Nc1cc2c(cc1Cl)C(=O)c1ccccc1C2=O	-23%	-69%	0%	35%[activator]	2.2%	u	-2%	u
56	CC(=O)NCC(=O)OCC(=O)c1ccc(Br)cc1	-1%	6%	3%	-13%	0.4%	-4%	4%	1%
57	COC(=O)c1cn(NC(=O)Cc2ccccc2OC)c(=O)c2ccccc12	-5%[46.1 µM]	x	3%	-7%	x	x	0%	0%[46.1 µM]
58	CC1=NN(c2nc(-c3ccccc3)cs2)C(=O)C1	11%	23%	-2%	-5%	-10%	-18%	1%	-2%
59	O=[N+]([O-])c1ccc(N=Nc2c(O)[nH]c3ccc(F)cc23)cc1	u	0%	15%	-1%	x	x	-3%	u
60	CCCCc1nc2sc3c(c2c(=O)n1NC(=O)c1ccco1)CC(C)(C)OC3	x	4%	2%	-11%	x	x	0%	x

# Next section:
no.	molecule	Lassa entry inh	NS1 inh	RE007 growth inh	StopGo reporter	Cruzain inh Det	Cruzain noTriton	SARS PLP yeast	MARV entry inh
61	CC(=O)c1cccc(NC(=O)CCCSc2nc(-c3ccco3)cc(C(F)(F)F)n2)c1	9%[46.1 µM]	x	x	3%	-12%	19%	x	-9%[46.1 µM]
62	O=c1c(-c2ccc([N+](=O)[O-])cc2)coc2c(O)c(O)ccc12	u	6%	u	4%	x	x	-1%	u
63	Cc1ccc(C(=O)/C=C/NNC(=O)c2ccccc2O)cc1	x	13%	-2%	31%[activator]	x	x	-8%	x
64	Cc1ccc(CNS(=O)(=O)c2c(C)nc3scc(C)n3c2=O)cc1	28%[46.1 µM]	3%	3%	-18%&-14%	1.0%	-10%	-1%	8%&8%[46.1 µM]
65	Cc1cc(C)n(Cc2ccccc2Cl)n1	8%	8%	0%	1%	-1.5%	10%	12%	-11%&-11%[46.1 µM]
